# MenB inh – blocks the Mycobacterium tuberculosis MenB enzyme. P9WNP5. MenB enzyme assay, absorbance read-out; some hits fall short of the stated cut. inhibition, %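 (about 12 µg/mL by stock and volumes)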. actives 0.43% (n = 100,000). AID 540299;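 active = mean of two replicates above 30%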;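 note: 0% = no compound and 100% = wells with inactive enzyme; the first replicate is given; strong numbers were not always called active; inactives centre near -10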
# MbtI inh – MbtI salicylate synthase inhibition | P9WFX0 | purified MbtI enzyme, fluorescence intensity read-out | inhibition, %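 (about 17 µg/mL by stock and volumes)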 | actives 0.89% (n = 100,000) | AID 493033;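 active = above 50% in both replicates, above 80% if mildly self-fluorescent; inactive = the rest, strongly fluorescent compounds included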;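 note: 0% = mean of negative and 100% = mean of positive controls; one replicate is shown; some compounds called inactive have numbers as strong as hits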
# Target sequence (P9WFX0 whole entry, looked up): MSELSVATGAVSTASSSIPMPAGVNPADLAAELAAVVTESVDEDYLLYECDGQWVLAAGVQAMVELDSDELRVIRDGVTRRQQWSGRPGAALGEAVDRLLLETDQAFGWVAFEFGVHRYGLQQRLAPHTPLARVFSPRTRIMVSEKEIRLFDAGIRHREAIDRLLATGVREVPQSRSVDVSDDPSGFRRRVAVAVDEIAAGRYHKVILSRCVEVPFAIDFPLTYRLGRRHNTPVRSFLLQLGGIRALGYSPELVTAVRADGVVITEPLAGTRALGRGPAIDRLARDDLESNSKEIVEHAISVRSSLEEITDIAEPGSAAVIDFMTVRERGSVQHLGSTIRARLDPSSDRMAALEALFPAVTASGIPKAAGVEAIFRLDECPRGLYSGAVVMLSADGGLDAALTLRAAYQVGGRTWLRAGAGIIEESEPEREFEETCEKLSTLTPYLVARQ
# Polio RdRp inh – inhibitors of poliovirus RNA polymerase binding and polymerization | % elongation, % (compound at 16.7 µg/mL) | P03300 | actives 0.66% (n = 150,000) | poliovirus polymerase elongation, fluorescence polarization; stronger effect = lower value; in the data active = % elongation below about 90%; note: some results filed as inactive read as strong as hits
# Target sequence (P03300 1749-2209 limits assumed): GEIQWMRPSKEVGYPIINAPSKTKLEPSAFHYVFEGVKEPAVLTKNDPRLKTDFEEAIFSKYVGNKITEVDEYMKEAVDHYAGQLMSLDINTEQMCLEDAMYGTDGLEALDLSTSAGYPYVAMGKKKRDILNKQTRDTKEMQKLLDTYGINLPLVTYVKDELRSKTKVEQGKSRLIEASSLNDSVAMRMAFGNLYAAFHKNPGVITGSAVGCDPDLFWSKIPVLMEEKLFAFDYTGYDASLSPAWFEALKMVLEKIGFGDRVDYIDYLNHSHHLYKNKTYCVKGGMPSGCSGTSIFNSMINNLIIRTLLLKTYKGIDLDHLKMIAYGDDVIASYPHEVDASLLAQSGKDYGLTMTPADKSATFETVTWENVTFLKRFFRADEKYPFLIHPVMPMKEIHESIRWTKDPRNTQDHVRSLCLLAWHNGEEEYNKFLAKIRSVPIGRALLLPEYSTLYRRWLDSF
# Polio RdRp inh intensity – further read-out of Polio RdRp inh, marked with its call; % elongation; measured here: total intensity read-out; formula for this scale not given here;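 total fluorescence in place of polarization; lower means less elongation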
# The depositor's hits bear a star; / = not tested or not shown; & = joins results of further samples.
SMILES | MenB inh | MbtI inh | Polio RdRp inh | Polio RdRp inh intensity
COC(=O)c1ccc2c(c1)nc(SCc1ccccc1Cl)n1c3ccccc3nc21 | -6.8 | -8.8 | 104.0 | 105.0
N#Cc1sc2nc(N3CCCCC3)c3c(c2c1N)CCCC3 | -15.8 | / | 99.0 | 101.0
CC(C)CC(C(=O)N(C)Cc1ccccc1)N1Cc2ccccc2C1=O (configuration not stated) | 4.1 | -19.6 | 101.0 | 102.0
N#Cc1cccc(CSc2nc3ccc(C(F)(F)F)cc3[nH]2)c1 | -13.1 | -0.6 | 100.0 | 94.0
c1ccc(C(c2ccccc2)N2CCN(CC3(c4ccccc4)OCCO3)CC2)cc1 | -13.9 | / | 103.0 | 101.0
O=c1[nH]c2ccccc2cc1CNc1ccc(Cl)cc1 | -15.1 | / | 102.0 | 95.0
O=C1c2ccccc2C(=O)c2sccc21 | -12.1 | 5.8 | 102.0 | 98.0
Cc1nc(COC(=O)c2n[nH]c3ccccc23)cs1 | -16.0 | 105.7 | 102.0 | 106.0
Cc1c(C(=O)N2CCN(C(=O)C3COc4ccccc4O3)CC2)sc2nc[nH]c(=O)c12 (configuration not stated) | -27.4 | -13.8 | 98.0 | 108.0
Cc1oc2c(C)c3oc(=O)c4c(c3cc2c1C)CCCC4 | 7.3 | 16.0 | 101.0 | 102.0
COc1ccc(-c2nc(Cn3c(SCc4ccccc4C)nc4ccncc43)c(C)o2)cc1OC | -40.8 | 7.4 | 103.0 | 102.0
CCC(C)(C)C1CCC(=NNC(=O)Cc2cccn2C)CC1 (configuration not stated) | 9.2 | -3.4 | 102.0 | 108.0
COc1ccc(OCC(O)CNC(=O)c2c(-c3ccccc3)noc2C)cc1 (configuration not stated) | 10.0 | -3.9 | 97.0 | 108.0
Cc1cccc(NC(=O)c2ccc(-n3nc(C)cc3C)cc2)c1 | / | -7.0 | 102.0 | 99.0
CCCNS(=O)(=O)c1c(C(=O)OCC)c(C)n(C)c1C | 7.1 | -3.4 | 101.0 | 104.0
COc1ccccc1C(=O)Nc1sc2c(c1C(N)=O)CCC2 | / | 91.1 | 103.0 | 107.0

# In the list so far, 4 contain a thiophene ring, fused or not.
SMILES | MenB inh | MbtI inh | Polio RdRp inh | Polio RdRp inh intensity
N#Cc1sc2nc(N3CCCCC3)c3c(c2c1N)CCCC3 | -15.8 | / | 99.0 | 101.0
O=C1c2ccccc2C(=O)c2sccc21 | -12.1 | 5.8 | 102.0 | 98.0
Cc1c(C(=O)N2CCN(C(=O)C3COc4ccccc4O3)CC2)sc2nc[nH]c(=O)c12 (configuration not stated) | -27.4 | -13.8 | 98.0 | 108.0
COc1ccccc1C(=O)Nc1sc2c(c1C(N)=O)CCC2 | / | 91.1 | 103.0 | 107.0

# Carrying on:
SMILES | MenB inh | MbtI inh | Polio RdRp inh | Polio RdRp inh intensity
O=C(C(Sc1ccccc1)c1ccccc1)N1CCN(c2ncccn2)CC1 (configuration not stated) | -29.3 | 16.4 | 104.0 | 114.0
N#Cc1ccc(C2Nc3cccc4cccc(c34)N2)cc1 | -13.1 | -0.7 | 99.0 | 102.0
CC(C)(C)N1C(=O)c2ccccc2C1=O | -27.8 | 16.4 | 102.0 | 97.0
Cc1ccc(S(=O)(=O)NCCC(=O)NC2CCCCCC2)cc1C | / | -5.4 | 100.0 | 103.0
C=N[C@@H](C(=O)N[C@@H]1C(=O)N2[C@@H]1SC(C)(C)[C@@H]2C(=O)O)c1ccccc1 | -4.3 | -8.7 | 102.0 | 101.0
O=C1NN=C(Cc2ccccc2)C1CCO (configuration not stated) | -8.3 | -12.7 | 101.0 | 99.0
CNc1ccccc1C(C)(C)c1cc(-c2cc(OC)cc(OC)c2)n[nH]1 | / | -5.4 | 100.0 | 95.0
CCN(CC)c1ccc(NC(=O)C(C)C)cc1 | 1.5 | 16.1 | 99.0 | 98.0
Oc1c(C(c2cccs2)N2CCCCC2)ccc2cccnc12 (configuration not stated) | -75.6 | 97.1* | 135.0 | 175.0
Cc1cc(C)n(CNc2ccc(I)cc2)n1 | 14.4 | 12.7 | 99.0 | 103.0
CC1(C)CC(=O)c2cc(C#N)c(SCC(N)=O)nc2C1 | 7.3 | -2.8 | 102.0 | 103.0
CC(C)(C)C(=O)Nc1ccc2oc(=O)ccc2c1 | -41.6 | 89.0 | 99.0 | 101.0
CCOC(=O)C1=C(C)N(C)C(C)=C(C(=O)OCC)C1c1ccccc1F | -15.2 | 16.8 | 104.0 | 108.0
CN1C/C(=C/c2ccco2)C(=O)/C(=C/c2ccco2)C1 | -305.1 | 33.1 | 103.0 | 108.0
CN(C)c1ccc(/C=N/S(=O)(=O)c2ccccc2)cc1 | -11.9 | / | 118.0 | 190.0
CC(=O)Oc1ccc2c(=O)c(-c3ccccn3)coc2c1 | -4.1 | -3.0 | 103.0 | 102.0
CCOC(=O)c1c(C(C)(C)C)oc2ccc(OCc3ccc(C(=O)OC)cc3)cc12 | 2.6 | -0.4 | 100.0 | 105.0
O=C(Cn1c(=O)[nH]c2ccsc2c1=O)NC1CCCCCC1 | 1.5 | -0.9 | 103.0 | 96.0
CC(C)n1c(C(O)c2ccccc2)nc2ccccc21 (configuration not stated) | -20.8 | -5.8 | 106.0 | 103.0
N#Cc1c(C(F)(F)F)cc(-c2ccccc2)nc1SCC1COc2ccccc2O1 (configuration not stated) | -18.8 | 6.7 | 99.0 | 94.0
O=C(NCCC1=CCCCC1)Nc1cccc(F)c1 | -15.4 | -17.1 | 103.0 | 103.0
O=C(CSc1nnc(Cc2ccccc2)o1)N1CCOCC1 | -24.7 | -4.7 | 100.0 | 95.0
COC(=O)c1ccccc1N=Cc1c(C)[nH][nH]c1=O | -217.7 | 89.7 | 102.0 | 102.0
O=c1[nH]c(C(F)(F)F)nc2ccccc12 | 4.6 | 51.7 | 96.0 | 111.0
O=C(Cc1ccc(Cl)c(Cl)c1)NCc1ccco1 | -21.9 | -9.6 | 103.0 | 115.0
C[C@@H]1C(=O)O[C@H]2CC34[C@H]5C[C@@H](C(C)(C)C)C36[C@@H](OC(=O)[C@@H]6O)OC4(C(=O)O5)[C@]21O (some centres not stated) | -2.2 | -6.7 | 100.0 | 102.0
Cc1cc(-c2nc3n(n2)Cc2ccccc2-3)c(C)n1-c1ccccc1 | -4.1 | -33.0 | 100.0 | 101.0
O=C(Nc1ccccc1)c1ccc(CSc2nnc(-c3ccc4c(c3)OCO4)o2)cc1 | -19.0 | 0.4 | 102.0 | 101.0
CSCc1nnc(NC(=O)c2ccc(S(=O)(=O)N3CCCC3)cc2)o1 | -7.7 | 2.5 | 99.0 | 100.0
O=C(COC(=O)c1ccccc1Cl)c1ccc(Cl)cc1 | 1.8 | -7.8 | 105.0 | 109.0
c1ccc2c(c1)nc1n2CCCS1 | -0.2 | 10.5 | 101.0 | 101.0
O=C(O)Cc1ccc(Br)cc1 | -32.1 | -0.5 | 105.0 | 105.0
COc1ccc(Cn2nnnc2CN(Cc2ccc(C)cc2)Cc2cc3cc4c(cc3[nH]c2=O)OCO4)cc1 | -157.3 | -0.3 | 104.0 | 100.0
CCN1C(=O)/C(=C/c2c(C)c(C#N)c(=O)n(C)c2N2CCN(c3ccc(F)cc3)CC2)SC1=S | 6.4 | -2.1 | 135.0 | 180.0
CCOC(CCn1c(SC)nc2c(sc3ccccc32)c1=O)OCC | -12.6 | 2.3 | 100.0 | 97.0
Cn1c2ccccc2c2cnn(CC(=O)N3CCCC3)c(=O)c21 | -21.2 | 106.2 | 102.0 | 101.0
COc1ccc(C(C2=C(O)CCCC2=O)c2cc3c(cc2O)OCO3)cc1 (configuration not stated) | -28.5 | / | 104.0 | 102.0
CCN(CC)c1ccc(NC(C)=O)c(C)c1 | -12.7 | -6.0 | 102.0 | 103.0
NC(=O)COC(=O)COc1ccc(OCc2ccccc2)cc1 | -1.0 | -24.2 | 105.0 | 110.0
O=c1[nH]c2ccccc2n2nnnc12 | -26.3 | 106.2 | 103.0 | 102.0
CC12CCC(O)CC1CCC1C2CCC2(C)C(C(=O)O)CCC12 (configuration not stated) | 5.4 | 16.4 | 105.0 | 100.0
O=c1[nH]c(SCC2CCCCO2)nc2ccccc12 (configuration not stated) | 12.6 | 8.9 | 100.0 | 102.0
CCOC(C)=C(C#N)C#N | -33.0 | -12.6 | 100.0 | 107.0
Nc1cc(-c2ccccc2)no1 | -18.9 | -4.3 | 101.0 | 99.0
COc1cc(CC(=O)O)cc(OC)c1OC | -21.7 | -9.7 | 105.0 | 108.0
CCC(NC(=O)NCc1cccnc1)(C(F)(F)F)C(F)(F)F | -18.7 | -12.9 | 102.0 | 104.0
COC(=O)Cn1c2ccccc2c2nc(C)sc21 | 24.1 | 8.4 | 100.0 | 99.0
COc1cc2ccc3c(CCN(C)C)cc(OC)c(OC)c3c2cc1OC | -5.4 | -41.5 | 101.0 | 97.0

# Carrying on.
# Each structure is followed by: MenB inh	MbtI inh	Polio RdRp inh	Polio RdRp inh intensity
O=C(COc1ccccc1)NCc1cn2ccsc2n1
  /	-18.4	104.0	108.0
CCOC(=O)c1cn(CC(=O)Nc2ccccc2CC)nn1
  -11.8	-2.5	98.0	101.0
Cc1cc(/C=N/NC(=S)NCC2CCCO2)c(C)n1CC(C)C (configuration not stated)
  -17.5	8.4	101.0	104.0
O=c1[nH]nc(-c2cccs2)c2ccccc12
  8.8	7.1	104.0	107.0
Cc1cccc(NS(=O)(=O)c2ccc3c(c2)CC(=O)N3)c1
  -19.1	-2.9	103.0	104.0
Cc1cccc2c1-c1sc(C(=O)NCCN3CCN(c4cccc(Cl)c4)CC3)cc1CO2
  -5.6	-1.0	100.0	100.0
CCOC(=O)c1c(-c2cccs2)csc1NC=O
  -1.2	-7.1	103.0	108.0
CCNc1nc(NCC)nc(N(n2cnnc2)S(=O)(=O)c2ccc(C)cc2)n1
  -76.4	-6.6	101.0	99.0
O=C1NC2=C(C(=O)NN(c3ccccc3)C2)C(c2ccccc2)N1 (configuration not stated)
  -8.9	1.5	100.0	102.0
COc1ccc(C(O)c2nc3ccccc3n2C(C)C)cc1 (configuration not stated)
  /	-8.7	104.0	103.0
O=C1CCCCC1Sc1ncnc2sccc12 (configuration not stated)
  15.6	9.1	104.0	106.0
CNS(=O)(=O)c1ccc(NC(=S)Nc2ccc3c(c2)OCO3)cc1
  -26.5	50.0	101.0	99.0
CCOc1ccccc1C(=O)Nc1nc2ccc(S(C)(=O)=O)cc2s1
  -2.8	/	98.0	101.0
Cc1cccc(N2CCN(C(=O)C3CCCN(C(=O)c4cc5sccc5n4C)C3)CC2C)c1 (configuration not stated)
  -18.2	3.5	103.0	103.0
CCCCn1c(=O)n(C)c(=O)c2c1nnn2CC(=O)N1CCCc2ccccc21
  -12.4	3.2	106.0	105.0
O=S(=O)(NCc1ccc2[nH]c3c(c2c1)CCCC3)c1ccccc1
  0.0	-9.3	100.0	106.0
COc1ccc(CNC(=O)C(C)n2nnc(-c3ccc(OC)c(OC)c3)n2)cc1 (configuration not stated)
  -20.8	7.2	103.0	105.0
COc1ccc(O)c(C=Nc2cc(C(F)(F)F)ccc2Oc2ccccc2)c1
  6.2	/	101.0	106.0
O=C(CCC1COc2ccccc2O1)Nc1ccc(C(=O)O)cc1 (configuration not stated)
  -7.2	-7.9	103.0	102.0
NC(=O)NC1C(=O)c2ccccc2OC1c1ccccc1 (configuration not stated)
  7.6	1.0	98.0	110.0
CC(CC(=O)Nc1ccccc1)c1ccccc1 (configuration not stated)
  0.6	1.4	103.0	103.0
CC(C)CCn1c(O)c(N=NC(=O)Cn2ccc(C(F)(F)F)n2)c2ccccc21
  -31.2	-2.9	105.0	106.0
CCCn1c(N2CCN(CC(=O)NCc3cccs3)CC2)nc2ccccc21
  -6.9	0.2	100.0	101.0
Cc1ccc(C2CC(c3cc(Br)ccc3O)=NN2)cc1 (configuration not stated)
  -53.1	24.4	/	/
O=C(CN1C(=O)COc2ccccc21)NC1CC1
  -25.1	2.7	102.0	98.0
O=C(/C=C(\O)c1ccccc1)C(=O)Nc1ccccc1
  27.6	-12.1	102.0	107.0
CCn1c(SCC(=O)c2cc(C)n(CC3CCCO3)c2C)nnc1-c1ccccc1 (configuration not stated)
  -25.2	-6.8	104.0	108.0
c1ccc2c(c1)nc(N1CCCC1)n2CCN1CCCCC1
  0.3	/	107.0	110.0
COc1cc(/C=C/C(=O)N2CCC(C)CC2)ccc1OCc1ccccc1
  -22.3	14.8	105.0	106.0
COC(=O)c1c(N)n(-c2ccc(C)c(C)c2)c2nc3ccccc3nc12
  -1.3	49.6	102.0	103.0
O=C(CC(Cc1ccccc1)C(=O)O)Nc1cccc(C(F)(F)F)c1 (configuration not stated)
  -15.9	-2.8	102.0	102.0
COc1cc(OC)cc([C@@H]2[C@@H](C(C)(C)C)C(C#N)(C#N)[C@H]3c4ccccc4C=CN23)c1
  -19.5	/	105.0	130.0
O=C(NCCN1Cc2ccccc2C1=O)c1ccc(Cl)cc1
  -11.6	-4.3	104.0	102.0
NC(=O)c1ccccc1N=Cc1ccc(Br)s1
  -10.6	/	103.0	105.0
Cc1sc2c(c1C)CSCC2=O
  10.9	72.1	99.0	105.0
CCOC(=O)C1CCN(CC(=O)CNc2ccc(Cl)c(Cl)c2)CC1
  -12.6	-6.4	103.0	103.0
COc1cc2c(c(OC)c1OC)-c1ccc(OC)c(=O)cc1[C@@H](NC(C)=O)CC2
  1.5&11.9	-13.0&-0.8	101.0&99.0	101.0&104.0
O=C(N/N=C/c1ccc(F)cc1)c1c(O)c2c([nH]c1=O)CCCC2
  -26.2	9.2	102.0	98.0
CC(CCc1ccccc1)NC(=O)CSc1ncnc2ccccc12 (configuration not stated)
  /	-6.0	102.0	110.0
